Marburg entry inh: Marburg virus entry inhibition; Marburg virus pseudotyped entry inhibition, cell reporter; control for the full effect not named in the record; about a third of the inactives were read at about 46 µM; Potency, µM (titrated, usually from 37.8 µM), without a hit: at the highest dose activity change, negative = inhibition, most hits filed as inhibitors; hit rate 1.8% among 300,000; active = well fitted inhibition curve with a large enough effect; inconclusive = small, poorly fitted or top-dose-only effect, or effect the other way; inactive = flat fitted curve, though single readings scatter; tested in HEK293 cells; about a fifth of its hits are not listed in these tables; note: % is set by controls: 0 for no effect and ±100 for the full control effect; luciferase read-out
SARS PLP yeast: SARS-CoV PLP inhibition in yeast; hit rate 0.19% among 330,000; Potency, µM (doses to about 32.9 µM), without a hit: at the top dose activity, positive = growth rescue; S. cerevisiae expressing SARS-CoV PLpro, growth rescue; control for the full effect not named in the record; active means well fitted rising curve with a large enough effect; inconclusive means small, poorly fitted or top-dose-only effect; inactive means no such curve, though single readings can be large or run the other way; note: 0% is about no effect; nearly all actives have a fitted effect of over 55% in size; growth read by luminescence after 48 h
2A StopGo: FMDV 2A StopGo reporter, luciferase signal; human cells with a luciferase reporter of 2A StopGo recoding; control for the full effect not named in the record; Potency, µM (highest dose often 57.9 µM), inactives show top-dose signal change, negative = less light; hit rate 1.2% among 410,000; AID 1159524; active = well fitted falling curve with a large enough effect; inconclusive = small, poorly fitted or top-dose-only effect; inactive = no such curve, though single readings can be large or run the other way; tested in HEK293T cells; note: % is set by controls: 0 for no effect and ±100 for the full control effect; nearly all actives have a fitted effect of over 45% in size; luciferase light after 4 h
Lassa entry inh: Lassa virus entry inhibition | Lassa virus pseudotype entry inhibition, cell reporter; control for the full effect not named in the record | Potency, µM (top dose mostly 37.9 µM), inactives show at the top dose activity change, negative = inhibition, hits mostly inhibitors | hit rate 1.2% among 300,000; active means well fitted inhibition curve with a large enough effect; inconclusive means small, poorly fitted or top-dose-only effect, or effect the other way; inactive means flat fitted curve, though single readings scatter; tested in HEK293 cells; note: % is set by controls: 0 for no effect and ±100 for the full control effect; nearly all actives have a fitted effect of over 50% in size; luciferase read-out
NS1 function inh: influenza NS1 inhibition | Potency, µM (top dose mostly 46.1 µM), for inactives: at the top dose activity, positive = more growth | S. cerevisiae slowed by influenza A NS1, growth recovery by OD600 | hit rate 0.4% among 270,000; active means well fitted rising curve with a large enough effect; inconclusive means small, poorly fitted or top-dose-only effect; inactive means no such curve, though single readings can be large or run the other way; note: nearly all actives have a fitted effect of over 50% in size
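OD600 was taken as the measure of yeast growth restored by compound in an NS1-expressing S. cerevisiae strain. Cells had been washed out of glucose medium and diluted 1:100 into galactose -URA medium, pH 6.0.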
Cruzain Triton: blocks cruzain activity in presence of Triton detergent; P25779; purified cruzain, Z-FR-AMC fluorescence, 0.01% Triton; Potency, µM, for inactives: max response, negative = inhibition, usual class: inhibitors; hit rate 0.43% among 200,000;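 note: plate controls were neutral wells for no effect and buffer without enzyme for full effect; nearly all actives have a fitted effect of over 40% in size; top concentration of the series not given in the record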
Target sequence (P25779 123-467 limits assumed): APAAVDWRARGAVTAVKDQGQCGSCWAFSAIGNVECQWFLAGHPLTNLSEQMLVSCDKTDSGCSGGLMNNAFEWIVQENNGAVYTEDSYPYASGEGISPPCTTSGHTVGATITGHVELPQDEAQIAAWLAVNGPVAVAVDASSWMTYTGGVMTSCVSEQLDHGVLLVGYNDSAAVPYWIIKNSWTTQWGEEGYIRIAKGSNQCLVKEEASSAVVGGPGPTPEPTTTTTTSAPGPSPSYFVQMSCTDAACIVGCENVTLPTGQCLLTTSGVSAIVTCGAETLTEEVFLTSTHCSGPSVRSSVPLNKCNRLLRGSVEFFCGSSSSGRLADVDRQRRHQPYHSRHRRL
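15 min RT preincubation of 1.5 nM cruzain with compound, then 2 uM Z-FR-AMC added; kinetic AMC fluorescence, 60 s delta. Triton X-100 0.01%, pH 5.5.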
RE007 growth inh: less growth of the S. pombe RE007 Vpr strain | S. pombe RE007 Vpr strain, BacTiter-Glo ATP luminescence, 24 h; control for the full effect not named in the record | Potency, µM (top dose mostly 92.2 µM), for inactives: at the highest dose activity change, negative = less growth | hit rate 0.21% among 360,000; active = well fitted falling curve with a large enough effect; inconclusive = small, poorly fitted or top-dose-only effect; inactive = no such curve, though single readings can be large or run the other way;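 note: % is set by controls: 0 for no effect and ±100 for the full control effect; nearly all actives have a fitted effect of over 50% in size; the assay follows cell death caused by Vpr and the record does not say whether a fall means rescue or toxicity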
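Fission yeast strain RE007, carrying one chromosomally integrated HIV-1 vpr copy, was seeded at OD 0.01 in PMG+AL medium with 23 nL pinned compound. After 24 h at 30 °C and 99% humidity, viability was read by BacTiter-Glo luminescence.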
Cruzain noTriton: cruzain (T. cruzi) inhibition without detergent. purified cruzain, Z-FR-AMC fluorescence, no detergent. P25779. Potency, µM, without a hit: max response, negative = inhibition, actives largely listed as inhibitors. hit rate 2.3% among 200,000;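 note: plate controls were enzyme without inhibitor for no effect and buffer without enzyme for full effect; nearly all actives have a fitted effect of over 40% in size; top concentration of the series not given in the record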
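Purified cruzain at 1.5 nM, pre-incubated 15 min with compound at room temperature in 100 mM sodium acetate pH 5.5, 5 mM DTT, 0.00005% Triton X-100. Reaction started with 2 uM Z-FR-AMC; AMC fluorescence increase over 60 s gives rate.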
* hit, by the source's call; ? = inconclusive; nt = no result given; [ ] = another dose, or the depositor's remark. Unless noted, calls come from the whole dose curve; as a rule, active = well fitted curve in the direction sought with a large enough effect; inconclusive = small, poorly fitted or top-dose-only effect, or another doubt; inactive = no such curve, though single readings can be large; an effect the other way counts as inactive or inconclusive. Potency is the fitted concentration of half-maximal effect.

SMILES	Marburg entry inh	SARS PLP yeast	2A StopGo	Lassa entry inh	NS1 function inh	Cruzain Triton	RE007 growth inh	Cruzain noTriton
CC1(C)OC(=O)C(=CNC(Cc2c[nH]c3ccccc23)C(=O)O)C(=O)O1 (centres undefined)	-3%	13%	-4%	27%	22%	3.5%	2%	11%
O=C(NCc1cccs1)Nc1cccc(Cl)c1	-8%[46.1 µM]	nt	70%[activator]	3%	nt	nt	14%	nt
CN(C)CC(C)(C)CNC(=S)NCc1ccc2c(c1)OCO2	?	3%	-9%	-11%	-19%	1.6%	-4%	0%
CCn1c(=O)cc(SCC(=O)Nc2ccc(Cl)cc2)c2ccccc21	6%	2%	-22%	-9%	4%	-7.1%	-1%	5%
CC(=O)N1c2ccccc2C(C)(c2ccc(C)cc2)CC1(C)C (centres undefined)	-28%[46.1 µM]	nt	?	21%[46.1 µM]	nt	-5.9%	nt	-13%
Cc1c(C(=O)NCc2ccccc2)oc2c1C(=O)CCC2	-1%	-21%	2%	-8%	0%	0.3%	1%	-7%
Cc1cccc(NC(=O)CSc2nccn2Cc2ccc(F)cc2)c1C	nt	nt	-1%	-31%[46.1 µM]	nt	-2.2%	nt	10%
O=C(COC(=O)c1ccccc1F)NC1CCCC1	10%	1%	74%[activator]	18%	-4%	nt	-24%	nt
O=C1CCC(CCC(=O)N2CCCC(C(=O)c3ccc4c5c(cccc35)CC4)C2)=NN1 (centres undefined)	nt	0%	-11%	nt	-6%	nt	-4%	nt
Clc1ccc(CSc2ccc(-c3ccco3)nn2)cc1	6%[46.1 µM]	-2%	53%[activator]	20%	nt	nt	-8%	nt
C#CCn1c(C2CC(=O)N(c3ccc(OCC)cc3)C2)nc2ccccc21 (centres undefined)	-14%[46.1 µM]	nt	10%	-16%[46.1 µM]	nt	-3.0%	nt	12%
CCN(CC)C(=O)CSc1nnc(-c2cccnc2)n1Cc1ccccc1	-1%	6%	6%	1%	6%	9.5%	-8%	1%
O=C(Nc1ccn(Cc2ccccc2F)n1)c1ccc(COc2cccc(Br)c2)cc1	8.9µM*	-6%	0%	?	-5%	3.0%	16%	?
O=C(O)c1cc(S(=O)(=O)Nc2ccccc2C(=O)O)ccc1O	9%	-2%	0%	2%	3%	1.2%	14%	1%
CCOc1ccc(-c2cnc3n2CCC3)cc1	20%	2%	7%	-2%	6%	1.0%	5%	2%
CCOC(=O)C1=NOC(Cn2cc(C(C)=O)c(=O)[nH]c2=O)C1 (centres undefined)	-1%[46.1 µM]	3%	-14%	16%[46.1 µM]	nt	nt	35%	nt
COCCn1c(C)cc(O)c(C(=O)Nc2cccc(Cl)c2)c1=O	nt	19%	-3%	nt	-20%	nt	-4%	nt
CCc1ccc(CNC(=O)c2ccc(CSc3nc4ccncc4n3Cc3ccccc3)cc2)cc1	?	nt	-13%	nt	nt	-1.4%	nt	?
Cc1cc(C(F)(F)F)nn1CC(=O)NCC1CCCO1 (centres undefined)	3%	4%	4%	9%	-5%	7.3%	0%	-4%
COc1ccc(-c2nc3ccccc3c(=O)n2CCN2CCOCC2)cc1	13%	-1%	nt	3%	?	-1.2%	8%	-5%
Cc1ccc(Sc2ncnc3onc(C)c23)cc1	?	-14%	18µM*	-4%	-30%	-2.3%	?	-7%
CCN(CC)S(=O)(=O)c1cccc(C(=O)N[C@H](C(=O)OCC(=O)NC(=O)NC)C(C)C)c1	0%	6%	26%	nt	1%	2.4%	3%	8%
COc1ccc(S(=O)(=O)N2CCN(C(=O)c3cnc(C)cn3)CC2)cc1	-4%	-3%	-19%	2%	-3%	-1.3%	-2%	6%
CCOc1ccccc1OCC(=O)Nc1cc2c(cc1C(=O)O)OCCCO2	17%[46.1 µM]	6%	22%	19%[46.1 µM]	3%	nt	4%	nt
O=c1c([N+](=O)[O-])c(NC2CCCCC2)c2ccccc2n1-c1ccccc1	4%	12%	-27%	-21%	4%	-6.2%	12%	6%

Carrying on.
SMILES	Marburg entry inh	SARS PLP yeast	2A StopGo	Lassa entry inh	NS1 function inh	Cruzain Triton	RE007 growth inh	Cruzain noTriton
Fc1ccc(-c2nc(-c3cnccn3)no2)c(Cl)c1	-19%[46.1 µM]	-1%	-24%	-2%	-5%	nt	-17%	nt
Cc1ccc(CNC(=O)CN(c2ccc(Cl)cc2Cl)S(=O)(=O)c2ccccc2)cc1	?	nt	1%	-27%[46.1 µM]	nt	-6.9%	nt	10%
Cc1ccccc1-c1nc(CN2CCC(C(=O)NCc3cccnc3)CC2)c(C)o1	-19%	6%	4%	-8%	20%	4.6%	-26%	0%
CCOC(=O)CNNC(=O)Nc1ccc(Cl)c(Cl)c1	5%	8%	-10%	1%	-18%	-2.9%	-5%	-5%
Cc1ccc(Cc2nc3ccccc3nc2SCC(=O)N2CCN(c3ccc(F)cc3)CC2)cc1	nt	nt	-3%	8%[46.1 µM]	nt	-1.2%	nt	-27%
CCOc1ccc(/C(O)=C2/C(=O)C(=O)N(CCCN3CCOCC3)C2c2ccc(C)cc2)cc1C (centres undefined)	nt	4%	-2%	nt	4%	nt	-10%	nt
Cc1onc(-c2c(Cl)cccc2Cl)c1C(=O)NC1CCCCC1	?	0%	-20%	?	2%	nt	3%	nt
COc1ccc(CNS(=O)(=O)NCc2ccccc2)cc1OC	-11%[46.1 µM]	-3%	-9%	-14%[46.1 µM]	nt	nt	0%	nt
O=C(O)C1CCCN1C1=NS(=O)(=O)c2ccccc21 (centres undefined)	?	-1%	6%	2%	8%	nt	28%	nt
COc1cc(NS(=O)(=O)c2ccc(NC(=O)NC3CCCCC3)cc2)nc(OC)n1	-11%	-3%	9%	16%	?	-7.7%	-9%	4%
S=C(NCc1cccnc1)Nc1ccc(Oc2ccccc2)cc1	nt	3%	0%	nt	-2%	nt	-20%	nt
Cc1ccc(Nc2nnns2)cc1C	7%[46.1 µM]	2%	-2%	-3%	-53%	-25%	-17%	-22%
COc1ccc(/C=C/C(=O)N(C)C2(C)CCS(=O)(=O)C2)cc1 (centres undefined)	26%[46.1 µM]	-2%	1%	2%	nt	nt	1%	nt
O=C(Nn1cc(C(=O)Nc2ccccc2F)c2ccccc2c1=O)c1cnccn1	?	7%	-26%	-23%	nt	nt	26%	nt
O=C(CSc1nnc(-c2ccncc2)n1Cc1ccco1)Nc1cccc(O)c1	6%[46.1 µM]	0%	-8%	1%[46.1 µM]	0%	nt	-11%	nt
O=C(Cc1ccccc1)NCCSCc1ccccc1	23%	-7%	9%	-14%	-26%	-1.3%	-4%	-8%
Cc1ccc(NC2(C(N)=O)CCCC2)cc1	15%[46.1 µM]	nt	-6%	9%[46.1 µM]	nt	nt	8%	nt
Cc1ccc2[nH]c3c(Cl)ncnc3c2c1	-20%[46.1 µM]	-4%	-5%	4%	-50%	nt	34%	nt
O=c1c2ccccc2[nH]c(=S)n1-c1cccnc1	0%[46.1 µM]	1%	5%	17%[46.1 µM]	6%	nt	-17%	nt
COc1ccc(N2C(=O)CCC2(C#N)c2ccc(Br)cc2)cc1 (centres undefined)	?	1%	-19%	8%	-4%	-2.6%	-3%	0%
O=C(N/N=C/c1ccc2cccc(OCc3ccccc3)c2n1)c1ccc(Br)cc1	16µM*	1%	?	?	6%	-3.1%	28%	-85%
O=C(Oc1cccc2cccnc12)c1ccc2c(c1)OCCO2	?	-18%	16%	-21%	-137%	-2.5%	?	-19%
COc1cc(Cl)c(C)cc1NC(=O)c1cnn(-c2ccc(C)cc2)c1-n1cccc1	nt	nt	-27%	-6%[46.1 µM]	nt	-4.1%	nt	-21%
Cc1ccc(NC(=O)Cn2c(=O)n(Cc3ccc4c(c3)OCO4)c(=O)c3ccc(C(=O)NC4CCCCC4)cc32)c(C)c1	-15%[46.1 µM]	nt	-4%	20%[46.1 µM]	nt	-0.4%	nt	-15%
O=C(Nc1ccc(O)cc1)c1ccccc1OCc1ccccc1	nt	1%	-29%	nt	-12%	nt	33%	nt

Carrying on.
SMILES	Marburg entry inh	SARS PLP yeast	2A StopGo	Lassa entry inh	NS1 function inh	Cruzain Triton	RE007 growth inh	Cruzain noTriton
CC(C)c1ccc2c(c1)C1Cc3ccccc3C1N2 (centres undefined)	?	-10%	3%	?	-9%	-9.5%	0%	-2%
COc1ccc(Nc2ncc(C(=O)N3CCN(c4cccc(Cl)c4)CC3)c3ccccc23)cc1	?	nt	?	-23%[46.1 µM]	nt	-7.0%	nt	-26%
COc1cc2ccccc2cc1C(=O)Nc1ccc2oc(-c3ccc(Cl)cc3)nc2c1	nt	nt	10%	4%[46.1 µM]	nt	0.2%	nt	-1%
CC(C)OC(=O)CSc1nc2c(cc1C#N)CCCCC2	nt	0%	56%[activator]	nt	0%	nt	-9%	nt
Cc1ccc(Cn2nc(C)c(/C=N/NC(=O)c3cccnc3)c2C)cc1	11%[46.1 µM]	1%	-22%	nt	2%	nt	3%	nt
O=C1CC(c2cccc(Cl)c2)Cc2nc(N3CCOCC3)ncc21 (centres undefined)	?	3%	-16%	?	-58%	-4.3%	-9%	29%
COc1cccc(C(=O)c2sc3nc(-c4ccccc4)cc(C(F)(F)F)c3c2N)c1	?	nt	-12%	-19%[46.1 µM]	nt	-6.1%	nt	-13%
CC(C)C12CN3CCN(CC(C3)/C1=N\O)C2	-3%	3%	9%	23%	?	8.4%	-7%	0%
CC1CCN(C(=O)COC(=O)CCCN2C(=O)c3cccc4cccc(c34)C2=O)CC1	14%	2%	-5%	4%	-18%	nt	-7%	nt
CCCn1c(SCCN2CCOCC2)nc2c1c(=O)n(C)c(=O)n2C	nt	1%	2%	nt	4%	nt	-8%	nt
N#C/C(=C\c1cccc(Br)c1)C(=O)N1CCCCC1	?	-10%	?	-1%[46.1 µM]	-119%	nt	-5%	nt
CC(C)c1ccc(NC(=O)c2cnc3sc(N4CCOCC4)nn3c2=O)cc1	nt	nt	?	-15%[46.1 µM]	nt	8.3%	nt	-2%
COc1cc(C2C3=C(CCCC3=O)Nc3[nH]n(-c4ccccc4)c(=O)c32)ccc1OC(C)=O (centres undefined)	1%[46.1 µM]	-1%	4%	?	nt	nt	-4%	nt
O=C(CN1CCN(Cc2ccc(F)cc2)C1=O)NCc1cccs1	nt	3%	-8%	nt	3%	4.0%	-3%	-7%
NNC(=O)c1cc2c(ccc3ccccc32)o1	-4%[46.1 µM]	1%	3%	11%	7%	nt	33%	nt
CCOc1cc(NC(=S)NCCCN2CCOCC2)c(OCC)cc1NC(=O)c1cccs1	0%[46.1 µM]	0%	-11%	2%	-3%	nt	9%	nt
O=C(c1cc(=O)c2cc(Cl)ccc2o1)N1CCN(Cc2ccccc2)CC1	-2%[46.1 µM]	1%	4%	?	-5%	nt	8%	nt
